Source: PubChem BioAssay (National Center for Advancing Translational Sciences (NCATS))
D2 potentiator: positive allosteric modulators of human D2 dopamine receptor. P14416. DiscoveRx D2 beta-arrestin cells, luminescence, 90 min; 100% = 57 uM dopamine signal. potentiation, % (test concentration not listed). 360,000 compounds, 0.23% hits. AID 624464; active = potentiation of 50% or more; inconclusive = 30% to 50%; inactive = 30% or less;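 further: compound concentration not given in the record; tested on top of an EC20 dose of dopamine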
Target sequence (P14416 whole entry, looked up): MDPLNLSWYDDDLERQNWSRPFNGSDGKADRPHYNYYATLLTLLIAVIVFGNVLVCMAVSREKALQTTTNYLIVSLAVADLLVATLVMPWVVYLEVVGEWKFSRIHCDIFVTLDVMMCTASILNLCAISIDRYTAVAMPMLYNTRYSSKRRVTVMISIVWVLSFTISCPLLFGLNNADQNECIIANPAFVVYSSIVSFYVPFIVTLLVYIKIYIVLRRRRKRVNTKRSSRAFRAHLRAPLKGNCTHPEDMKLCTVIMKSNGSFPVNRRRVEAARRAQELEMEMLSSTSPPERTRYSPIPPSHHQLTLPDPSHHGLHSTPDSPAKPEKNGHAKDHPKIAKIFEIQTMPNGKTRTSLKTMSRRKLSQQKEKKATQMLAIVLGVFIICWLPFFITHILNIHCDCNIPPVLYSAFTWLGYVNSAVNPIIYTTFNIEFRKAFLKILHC
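PathHunter beta-arrestin assay in DiscoveRx D2 cells. Compounds were added with an EC20 of dopamine (50 nM final) for 90 min at 37 deg C. Luminescence was read 1 h after detection reagent, with 57 uM dopamine as the EC100 control.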
TRPML1 ag: activates the human TRPML1 channel. 410,000 compounds, 0.12% hits. Q9GZU1. TRPML1-expressing cells, Ca2+ dye fluorescence, FDSS; host cell line not named in the record; reference of the full effect not given here. AID 624414. activation, % (no concentration beside the values); in the data active = activation above about 50%; inconclusive = about 30% to 50%; inactive = below about 30%; further: 0% is about no effect; the text of the record puts the active cut at 80%
Target sequence (Q9GZU1 whole entry, looked up): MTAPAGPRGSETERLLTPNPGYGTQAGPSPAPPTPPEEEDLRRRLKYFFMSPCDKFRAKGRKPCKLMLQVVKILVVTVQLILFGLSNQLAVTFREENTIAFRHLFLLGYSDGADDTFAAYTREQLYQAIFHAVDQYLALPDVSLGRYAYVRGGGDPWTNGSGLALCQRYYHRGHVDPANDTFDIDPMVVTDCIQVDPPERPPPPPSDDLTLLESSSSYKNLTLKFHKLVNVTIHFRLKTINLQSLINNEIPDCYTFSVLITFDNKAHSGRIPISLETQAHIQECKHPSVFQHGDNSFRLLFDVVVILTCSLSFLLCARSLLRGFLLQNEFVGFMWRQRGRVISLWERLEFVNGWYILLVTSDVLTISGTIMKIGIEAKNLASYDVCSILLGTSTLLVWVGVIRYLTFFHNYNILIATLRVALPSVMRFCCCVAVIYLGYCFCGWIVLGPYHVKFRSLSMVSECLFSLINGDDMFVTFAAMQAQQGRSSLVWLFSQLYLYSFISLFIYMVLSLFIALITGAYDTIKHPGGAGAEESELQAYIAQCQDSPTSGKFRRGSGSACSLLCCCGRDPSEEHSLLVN
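Tet-induced TRPML1-DL cells, 1,500 per well, cultured overnight, were loaded with a no-wash Ca2+ dye for 45–90 min. Calcium fluorescence was recorded on the FDSS for 110 s after compound addition, before the EC80 agonist (4 uM 54-4) was added.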
D2 ag: activates the human D2 dopamine receptor | P14416 | DiscoveRx PathHunter D2 beta-arrestin, luminescence, 90 min; 100% = 57 uM dopamine signal | activation, % (test concentration not listed) | 360,000 compounds, 0.084% hits | AID 624465; in the data active = activation above about 40%; inconclusive = about 15% to 40%; inactive = below about 15%; further: compound concentration not given in the record; the text of the record calls up to 30% inactive
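DiscoveRx PathHunter D2 beta-arrestin cells (2,100/well) attached overnight, then compound-stimulated 90 min at 37 C in HBSS/10 mM HEPES/0.1% Tween-20 buffer; beta-galactosidase complementation read by luminescence after 1 h at ambient temperature. Dopamine 57 uM final (EC100) as control.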
TRPML1 inh: human mucolipin-1 channel inhibition | TRPML1-inducible cells, Ca2+ dye fluorescence, FDSS; stronger effect = lower value; inhibition of EC80 agonist-evoked calcium signal | activity change, negative = inhibition, % (concentration not given with the values) | 390,000 compounds, 0.02% hits | AID 624415; in the data active means activity change below about -50%; inconclusive means about -30% to -50%; inactive means above about -30%;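 further: stimulus is agonist 54-4 at its EC80 concentration; on the % scale 0 is the no-effect control and ±100 the full control effect; the text of the record puts the active cut at -80%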
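Tet-induced TRPML1-DL cells loaded with Ca8 no-wash calcium dye were read kinetically on FDSS. Compound addition was followed by EC80 agonist 54-4 (4 uM final); inhibition was read over 110 s.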
PINK1 expr mod: changes PINK1 expression. AID 624263. Potency, µM (doses to about 76.6 µM), inactives show at the highest dose activation (PINK1 increase), actives largely listed as activators. 410,000 compounds, 0.2% hits. PINK1 immunofluorescence, high-content cytometry, 24 h; active = well fitted activation curve with a large enough effect; inconclusive = small, poorly fitted or top-dose-only effect; inactive = flat fitted curve, though single readings scatter; cell line not stated here;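 further: potency means the concentration at half of the fitted maximal effect; % of control where 0% means no effect; nearly all actives have a fitted effect of over 65% in size; a mitochondrial uncoupler was the plate control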
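Stable cell line, 250 cells/well, 12 h attachment; compounds pinned at 5 concentrations, 24 h; CCCP control. Fixed with nuclear dye, primary antibodies 12 h at 10 degrees C, secondary plus cell stain; laser-scanning cytometer read.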
Six1-Eya2 blk: blocks human Six1 binding to Eya2; AlphaScreen GST-Six1/His-Eya2 binding, biochemical; stronger effect = lower value; control for the full effect not named in the record; activity change, % (concentration not given with the values); 360,000 compounds, 0.56% hits; Q15475+O00167; in the data active = activity change below about -65%; inconclusive = about -30% to -65%; inactive = above about -30%; further: on the % scale 0 is the no-effect control and ±100 the full control effect
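AlphaScreen luminescence read after one hour at 37 °C in darkness. Pin-transferred compounds met GST-Six1 and His-Eya2 protein (5X stock 250 nM/500 nM) plus glutathione donor and Ni-chelate acceptor beads (5X, 50 ug/mL).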
* = called active by the depositor; ? = inconclusive; / = not tested or not shown; [ ] = remark or other dose. The order is random, and some 1% of all compounds hit somewhere here.

molecule	D2 potentiator	TRPML1 ag	D2 ag	TRPML1 inh	PINK1 expr mod	Six1-Eya2 blk
Cn1c(O)c(N=NC(=O)CNC(=O)c2ccccc2)c2cc(Br)ccc21	-7	-0.4	-4.4	0	3.8%	-8
CCCCn1cc(S(=O)(=O)c2ccc(OC)cc2)c(=O)c2cc(CC)ccc21	/	-0.5	/	-5	-1.5%	/
COCCNC(=O)C1CC(c2cccc(OC)c2)=NO1 (stereo not given)	-9	-0.4	-0.7	7	1.2%	-1
COc1ccc(Nc2nc(N)nc(CSc3nncn3C)n2)cc1	-5	0.1	-3.2	5	2.8%[38.3 µM]	-14
Cc1ccccc1Oc1ncnc2oc(-c3ccccc3)cc12	-14	3.1	-0.4	-2	0.5%	20
CNC(=O)c1cc(C(=O)c2ccccc2Br)c[nH]1	-3	0.5	-5.0	-6	4.8%	10
COc1ccc2[nH]c(C)c(CCN3C(=O)OC(C)(C)C3(C)O)c2c1 (stereo not given)	-5	0.2	-1.5	39	-1.1%	0
CCCCn1c(C23CC4CC(CC(C4)C2)C3)n[nH]c1=S	-5	2.4	-0.9	-5	6.1%	-2
CC(=O)Nc1nnc(SCc2cc(=O)c3cccc(Cl)c3[nH]2)s1	/	0.0	/	-2	20%	/
Cc1c(C(=O)N/N=C/c2ccccn2)nnn1-c1nonc1N	4	-0.2	0.0	2	-0.3%	?
CCc1cc(C)cc(OCCNC(=O)c2ncn[nH]2)c1	-8	0.1	1.8	15	/	-28
Cc1cc(C)c2c(CN3CCN(c4ccccc4)CC3)cc(=O)oc2c1	-4	-0.4	-3.6	9	4.8%	1
COc1ccc(NC(=O)CNC(=O)C2CCCCC2)cc1OC	-8	0.6	-8.7	-4	0.0%	7
Nc1sccc1C(=O)c1ccc(Cl)cc1	-8	1.9	-0.9	-9	1.1%	-8
Cc1ccc(Cn2c(C)c3cnn(CC(=O)NCc4ccccc4)c(=O)c3c2C)cc1	/	2.6	/	10	2.8%	/
Cc1cccc(C)c1NC(=O)Cn1c(=O)c2cccn2c2ccccc21	-17	-0.4	-3.9	0	1.4%	-5
COCC(C)NC(C(=O)Nc1ccc(Cl)c([N+](=O)[O-])c1)c1ccccc1 (stereo not given)	-18	0.9	-6.9	-16	8.2%	5
COc1ccc(C(=O)NCCC(C)C)cc1S(=O)(=O)N1CCOCC1	-5	-0.5	-3.6	17	4.5%[38.3 µM]	2
CCOC(=O)C1Nc2ccc(C(=O)O)cc2C2C=CCC12 (stereo not given)	5	0.0	6.6	-1	-1.3%	?
COc1ccc(NS(=O)(=O)c2cc(NC(=O)COc3ccccc3)ccc2N2CCOCC2)cc1	-3	-0.1	0.2	-10	2.0%	-4

Record cards, as listed above. Order of screens: D2 potentiator	TRPML1 ag	D2 ag	TRPML1 inh	PINK1 expr mod	Six1-Eya2 blk
CCCCn1c(C23CC4CC(CC(C4)C2)C3)n[nH]c1=S is listed with -5	2.4	-0.9	-5	6.1%	-2
COc1ccc(C(=O)NCCC(C)C)cc1S(=O)(=O)N1CCOCC1 is listed with -5	-0.5	-3.6	17	4.5%[38.3 µM]	2

Four compounds from above, showing only Six1-Eya2 blk, D2 potentiator and D2 ag:
Structure	Six1-Eya2 blk	D2 potentiator	D2 ag
COCC(C)NC(C(=O)Nc1ccc(Cl)c([N+](=O)[O-])c1)c1ccccc1 (stereo not given)	5	-18	-6.9
COCCNC(=O)C1CC(c2cccc(OC)c2)=NO1 (stereo not given)	-1	-9	-0.7
Cc1cc(C)c2c(CN3CCN(c4ccccc4)CC3)cc(=O)oc2c1	1	-4	-3.6
COc1ccc2[nH]c(C)c(CCN3C(=O)OC(C)(C)C3(C)O)c2c1 (stereo not given)	0	-5	-1.5

Continued.
molecule	D2 potentiator	TRPML1 ag	D2 ag	TRPML1 inh	PINK1 expr mod	Six1-Eya2 blk
O=C(CSc1nc2scc(-c3cccs3)c2c(=O)n1CCc1ccccc1)N1CCCC1	-4	-0.1	0.2	11	9.4%	5
CC(NC(=O)COC(=O)C1CC1C)c1cccc(Cl)c1 (stereo not given)	-5	-0.8	-3.1	-8	0.5%	0
C=CCC[C@@H](CCCCC)OC(=O)/C=C/[C@H](O)[C@@H](O)C[C@H](O)CC=C	/	-0.6	/	/	5.6%	7
CCn1c(CCNC(=O)c2ccc(Cl)cc2Cl)n[nH]c1=S	-5	0.1	4.6	40	24%[38.3 µM]	2
Nc1nnc(SCC(=O)NNC(=O)c2ccc(Cl)cc2)s1	-4	2.3	4.7	8	-0.7%	1
O=C(NCc1ccncc1)Nc1ccccc1Cl	11	-0.4	-2.6	24	-0.5%	1
Cc1ccsc1C(=O)N1CCC1(C)C(=O)Nc1ccc2c(c1)OCCO2 (stereo not given)	-4	0.0	3.2	/	-0.1%	-7
O=C1NC(CCO)C(=O)NC1CCO (stereo not given)	-2	-0.6	0.8	-7	0.9%	6
CCOC(=O)NC(=O)/C(C=Nc1ccc(Cl)c(Cl)c1Cl)=C(\C)O	-5	1.7	-5.8	24	3.9%	5
COc1ccccc1-n1c(CNC(=O)c2ccc(S(=O)(=O)N3CCOCC3)cc2)n[nH]c1=S	5	1.0	-0.3	-6	/	0
COc1cccc(NC(=O)Nc2ccc3c(c2)N(C)C(=O)CS3)c1	-7	-1.2	0.9	-13	1.5%	-5
Oc1ccc(/C=N/Nc2ncnc3nc[nH]c23)cc1	-7	-0.6	-3.0	15	1.6%	?
COc1cccc(-n2c(=O)c3sccc3n(CC(=O)NC3CCCCC3)c2=O)c1	-6	-1.0	-2.7	-3	11%	3
Cc1ccc2nc(NC(=O)Cc3cccs3)sc2c1	-4	0.3	-1.2	1	3.0%[38.3 µM]	-3
Cc1ccc(C(=O)O[C@H](C(=O)O)[C@H](OC(=O)c2ccc(C)cc2)C(=O)O)cc1	1	-0.7	0.5	8	3.5%	15
Nc1ccc2c(c1)C(O)c1cccc(C(=O)O)c1-2 (stereo not given)	0	-0.5	-0.4	-7	-1.4%	-4
Cc1ccc(S(=O)(=O)NCC(=O)NC2CC2)cc1	-3	1.0	-4.2	3	-0.1%	8
CCNC(=O)C1CCCN(C(=O)c2ccc3c(c2)CCO3)CC1 (stereo not given)	-1	-0.5	-5.0	/	0.5%	-7
CC(C)(C)C(=O)Nc1nnc(COc2ccc(Cl)cc2)s1	0	-0.7	2.5	-14	4.8%	0
Cc1ccnc(NC(=O)c2cccc(S(=O)(=O)N3CCOCC3)c2)c1	16	-0.9	-3.8	6	1.9%	5

Continuation.
molecule	D2 potentiator	TRPML1 ag	D2 ag	TRPML1 inh	PINK1 expr mod	Six1-Eya2 blk
CCOCCCNC(=O)C1CCCN1C(=O)NC1CCCCC1 (stereo not given)	1	0.1	-3.0	2	-0.7%	9
O=C(CCN1C(=O)C2C3CCC(C3)C2C1=O)Nc1ccccc1Cl (stereo not given)	-12	4.4	-4.6	-2	-1.5%	0
NC(=O)C1CCCN(C(=O)c2cccc(S(=O)(=O)N3CCCCCC3)c2)C1 (stereo not given)	-1	0.1	-7.3	-7	-0.6%	5
CCC(=O)Nc1ccccc1C(=O)OCC(=O)Nc1ccc(S(N)(=O)=O)cc1	-8	-0.1	1.6	31	1.6%[38.3 µM]	3
CC(C)c1ccc(O)c(NC(=O)c2cncc(Br)c2)c1	7	1.4	3.3	-10	/	-2
COc1cccc(-c2c(-c3cc(OC)cc(OC)c3)n(C)c3ccc(-c4ccc(OC)nc4)cc23)c1	1	0.2	-0.9	-14	9.1%	-8
CC1CCC2(CC1)NC(=O)N(CC(=O)Nc1ccc3[nH]c(=O)[nH]c3c1)C2=O (stereo not given)	-4	0.0	-5.4	16	1.7%	-2
CC(Oc1ccc(F)cc1)C(=O)Nc1cccc(-c2nn[nH]n2)c1 (stereo not given)	-25	0.2	-7.5	-5	0.2%	-7
Cc1nn(-c2ccccc2)c(Cl)c1/C=N/NC(=O)CNC(=O)c1ccccc1Cl	-13	2.7	-5.8	3	3.6%	-7
O=[N+]([O-])c1cc(CS(=O)(=O)Oc2ccc(Cl)cc2)c(O)c([N+](=O)[O-])c1	-25	-0.2	-12	-6	1.5%	-2
COc1ccc(-c2ccc(C(c3c(C)[nH][nH]c3=O)c3c(C)[nH][nH]c3=O)o2)c([N+](=O)[O-])c1	1	1.3	4.1	-11	-0.3%	-18
CC1(c2nnc(-c3ccc(Cl)cc3)o2)CC(c2c(Cl)cccc2Cl)=NO1 (stereo not given)	-6	2.2	-0.9	13	-0.4%	4
Cc1ccccc1OCCC(=O)Nc1ccc(S(=O)(=O)N2CCCC2)cc1	-14	-0.2	-4.8	14	1.4%	-18
COc1ccc([C@@H]2C[C@@H](c3ccccc3)Oc3cc(OC)c(OC)c(OC)c32)cc1	-7	1.2	4.2	6	3.5%	-26
COc1ccc(OC)c(NC(=O)c2cnn(-c3ccccc3)c2C)c1	0	-0.4	0.1	-1	-0.1%	-3
CCOC(=O)c1nnn(-c2ccccc2)c1C	-7	0.8	-0.6	12	5.3%	-9
CSc1n[nH]c(=O)n1-c1ccc(Cl)cc1	-4	-0.5	0.7	3	-0.5%	-13
CCOC(=O)N(Cc1ccccc1)C(C(=O)O)C(C(=O)O)N(Cc1ccccc1)C(=O)OCC (stereo not given)	-4	0.0	-0.4	37	3.5%	15
COc1ccc2c(C)c(CCC(=O)NCc3ccc(C)cc3)c(=O)oc2c1	/	-1.3	/	-13	5.9%	/
Cc1cc2c(ncn2C)c(NS(=O)(=O)c2ccc(Cl)cc2)c1C	-2	0.1	-3.6	-9	-2.9%	2
NC(=O)COC(=O)c1sc2ccccc2c1Cl	-5	-0.7	-3.5	28	4.3%	0
CCc1ccc(C(=O)CC2(O)C(=O)N(CCc3ccccc3)c3ccc(Br)cc32)cc1 (stereo not given)	/	1.9	/	-1	-0.1%	/
Cc1ccc(NC(=O)CN2CCC(NC(=O)C3CCCCC3)CC2)c(Br)c1	-6	0.5	-4.4	1	1.2%	6
